Compound activity deposited in PubChem by Fisher Drug Discovery Resource Center.
NPYLR7 ag: mosquito NPYLR7 agonism. HEK293T NPYLR7/Galpha15, GCaMP6s calcium fluorescence. activation, % at 10 µM. hit rate 0.15% among 270,000. AID 1259423; in the data active = activation above about 40%;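 note: 0% = vehicle and 100% = reference agonist at the receptor; some compounds past the cut are filed as inactive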
NPYLR7 ag max-min: further read-out of NPYLR7 ag, marked with its call; activation, %; measured here: Max-Min RFU normalised activation; some inactives read as strong as hits;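 span of the calcium signal over five minutes; 0% = vehicle and 100% = native peptide agonist; compound fluorescence can raise it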
The depositor's hits bear a star; & = joins results of further samples. Only part of the results is shown, so the mix of outcomes need not match the whole.

Preview:
Every second line gives: NPYLR7 ag, NPYLR7 ag max-min
> Cc1ccc(-c2nnc(Nc3ccc(F)cc3)c3ccccc23)cc1S(=O)(=O)NC(C)C
  -16.6, -20.5
> CCC(C)N(CC(=O)O)S(=O)(=O)c1cccnc1Cl (stereo not drawn)
  -2.9, -2.6
> C=C(C)Cn1c(C2CC(=O)N(c3ccccc3C)C2)nc2ccccc21 (stereo not drawn)
  -2.0, 24.0
> Cc1cc(C(=O)NC(CC(C)C)c2ncnn2C)ccc1F (stereo not drawn)
  -0.2, -2.1
> COCCC1CCCCN1Cc1ccc(S(C)(=O)=O)cc1 (stereo not drawn)
  -4.9, -8.6
> COc1ccc(/C=C2\SC(=Nc3cc(C)cc(C)c3)NC2=O)c(C)c1
  -1.4, -5.8

Main list, from the first entry:
Every second line gives: NPYLR7 ag, NPYLR7 ag max-min
> Cc1ccc(-c2nnc(Nc3ccc(F)cc3)c3ccccc23)cc1S(=O)(=O)NC(C)C
  -16.6, -20.5
> CCC(C)N(CC(=O)O)S(=O)(=O)c1cccnc1Cl (stereo not drawn)
  -2.9, -2.6
> C=C(C)Cn1c(C2CC(=O)N(c3ccccc3C)C2)nc2ccccc21 (stereo not drawn)
  -2.0, 24.0
> Cc1cc(C(=O)NC(CC(C)C)c2ncnn2C)ccc1F (stereo not drawn)
  -0.2, -2.1
> COCCC1CCCCN1Cc1ccc(S(C)(=O)=O)cc1 (stereo not drawn)
  -4.9, -8.6
> COc1ccc(/C=C2\SC(=Nc3cc(C)cc(C)c3)NC2=O)c(C)c1
  -1.4, -5.8
> COc1cccc(-c2ccccc2NC(=O)C2CCN(CC3CC=CCC3)CC2)c1 (stereo not drawn)
  12.7&4.6, 5.6&-0.4
> Clc1ccc2nc(CN3CCCC3c3nccs3)nc(N3CCOCC3)c2c1 (stereo not drawn)
  19.8, 8.7
> CCCCCN(CC(=O)Nc1cc(C(C)(C)C)nn1-c1ccccc1C)C(=O)c1ccccc1OC
  -6.5, -3.0
> CN(C)C(=O)c1ccc(-c2cccc(Cl)c2)s1
  15.6, 22.9
> O=C(NC(N1CCCC1=O)(C(F)(F)F)C(F)(F)F)c1ccco1
  -0.6, -6.4
> COc1ccccc1OCCN1C(=O)C2(SC(NC(C)=O)=NN2C(C)=O)c2cc(Cl)ccc21 (stereo not drawn)
  1.4, -1.2
> CCCc1nc(N2CCCN(C(=O)CCC3CCCC3)CC2)c2c(-c3cccc(C(F)(F)F)c3)noc2n1
  14.0, 2.7
> CCOC(=O)c1c(C)[nH]c(C(=O)C(=O)N2CCN(C(=O)c3ccco3)CC2)c1-c1ccccc1
  8.2, 1.6
> O=C(O)CN1C(=O)/C(=C\c2cccc(C(F)(F)F)c2)SC1=S
  1.7, -6.3
> CNC(=O)CSc1cn(CC(=O)N2CCCC2)c2ccccc12
  -4.9, -11.3
> COc1cc(CO)ccc1Oc1c(-c2ccccc2)c2ccccc2[nH]c1=O
  -1.0, -1.4
> COc1cccc(C(=O)c2c[nH]c3ncccc23)c1
  -1.4, 1.4
> Fc1ccc(C2(c3noc(CCc4nc(Cl)n[nH]4)n3)CCOC2)cc1 (stereo not drawn)
  15.9, 3.5
> CCOC(=O)C1(C)CCN1C(=O)c1ccc(C(C)(C)C)cc1 (stereo not drawn)
  1.1, -0.9

A draw from above in order of heavy-atom count, ascending:
Every second line gives: NPYLR7 ag, NPYLR7 ag max-min
> CCOC(=O)C1(C)CCN1C(=O)c1ccc(C(C)(C)C)cc1 (stereo not drawn)
  1.1, -0.9
> CCOC(=O)c1c(C)[nH]c(C(=O)C(=O)N2CCN(C(=O)c3ccco3)CC2)c1-c1ccccc1
  8.2, 1.6
> CCCCCN(CC(=O)Nc1cc(C(C)(C)C)nn1-c1ccccc1C)C(=O)c1ccccc1OC
  -6.5, -3.0

Going on with the list:
Every second line gives: NPYLR7 ag, NPYLR7 ag max-min
> O=C(NC1CC1)c1ccccc1COc1ccccc1
  6.0, 5.5
> CC(C)CCN(CC(=O)N(Cc1cccn1Cc1ccccc1)C1CCCCC1)C(=O)C(C)(C)CCl
  -6.6, -4.6
> C(=NNc1nncc2ccccc12)c1ccc(N2CCOCC2)s1
  4.9, 5.0
> Cc1ccccc1-n1c(SCc2nc(C(=O)NCCc3ccccn3)cs2)nnc1-c1ccncc1
  -1.5, 1.2
> CC(C#N)Sc1nnc(Cc2cccs2)n1C1CC1 (stereo not drawn)
  -0.7, 7.8
> COCCCn1c(SC(C)C(=O)Nc2cc(OC)cc(OC)c2)nc2ccccc2c1=O (stereo not drawn)
  -0.5, 0.4
> CC(=O)N1CCSC12C(=O)N(Cc1cccc(F)c1)c1ccc(F)cc12 (stereo not drawn)
  10.2, 8.9
> O=C(c1ccccc1C1CCNC1)N1CCc2[nH]nc(C3CCC3)c2C1 (stereo not drawn)
  -3.1, -9.7
> N#CC1C(=N)SC(=N)C(C#N)C1c1cccc(O)c1 (stereo not drawn)
  51.0*, 53.0*
> Cc1nc(C(C)C)sc1CNC(=O)c1cn(CC2CCCNC2)nn1 (stereo not drawn)
  4.0, 2.0
> COc1cccc(Oc2cc(N3CCN(S(=O)(=O)c4ccc(Cl)cc4)CC3)ncn2)c1
  6.1, 8.6
> CCC(C)(C)C1CCC2(CC1)NC(=O)N(CC(=O)c1ccccc1)C2=O (stereo not drawn)
  2.8, -0.9
> C=CCn1cc(CN2CCN(Cc3ccc4c(c3)OCO4)C(=O)C2)c(C)n1
  -13.4, -15.5
> COCc1cc(NCc2c(C)noc2C)nc(C(C)(C)C)n1
  9.5, 8.5
> CCCn1c(=O)[nH]c(=O)c2cc(C(=O)N3CCc4ccccc43)cnc21
  0.6, 0.8
> COC(=O)c1cccc2c1CN(CC(=O)Nc1cccc(C#N)c1)CC2
  -0.6, 7.7
> Cc1[nH]n(-c2ccccc2)c(=O)c1N=Nc1ccccc1C(=O)N1CCCCCC1
  -2.3, -8.6
> CCOC(=O)C1=C(C)NC(=O)C(C#N)C1c1ccc([N+](=O)[O-])cc1 (stereo not drawn)
  -4.8, -5.7
> CC(C)N(Cc1nccn1Cc1ccc(Cl)cc1Cl)C(=O)C1CCCC1
  -0.5, 8.5
> CC1(C)OC(c2ccccc2)=C/C(=C/C/C=C2/C=C(c3ccccc3)OC(C)(C)O2)O1
  9.2, 11.9
> Cc1nccn1CCC(NC(=O)Cn1nnnc1CN1CCCC1)c1ccccc1 (stereo not drawn)
  -1.2, -3.2
> CCOC(=O)c1cccc(NC(=O)NC/C=C(\C)CCC=C(C)C)c1
  -8.1, -12.5
> CCOC(=O)c1sc2nc3n(c(=O)c2c1C)CCC3
  2.1, -0.1
> CCc1noc(-c2ccc(C)c(NC(=O)NCc3ncnn3C)c2)n1
  3.0, 0.9
> O=[N+]([O-])c1cc2c(cc1C=NNc1nncc3ccccc13)OCO2
  2.3, -3.6
> CC(=O)c1cc(Cl)sc1Cl
  4.6, 2.6
> NC(=O)c1ccccc1OCc1cccc(C(=O)NC2=NCCS2)c1
  8.5, -7.3
> CNC(=O)NC(=O)C(Nc1ccc(OC)c(OC)c1)c1ccccc1 (stereo not drawn)
  -5.0, -5.6
> COCCN(C)c1ncnc(N2CCC(C)CC2)c1N
  18.9, 6.5
> COc1ccc(OCC2CN(C(=O)CCCNC(=O)OCc3ccccc3)CCO2)cc1 (stereo not drawn)
  5.8, 17.4
> Cc1ccc(-n2c(SCC(=O)N3CCCC3)nc3c([nH]c4ccccc43)c2=O)cc1
  2.6, 16.4
> CCS(=O)(=O)c1ccc(CC(=O)N(CCn2cccn2)c2nc3c(Cl)cccc3s2)cc1
  -11.5, -15.5
> Cc1cc2c(=O)n(C)c(SCC(=O)N3CCN(c4ccccc4)CC3)nc2s1
  -6.5, -8.8
> CCCc1cc(C(=O)N2CCC(Cc3cccc(C(=O)O)c3)CC2)n(C)n1
  2.4, -0.2
> Cc1cc(=O)n2c(n1)SCC2CC(=O)NCc1ccccc1Cl (stereo not drawn)
  -5.5, -6.0
> CCc1ccc(C)[n+](Cc2ccc(Cl)c(Cl)c2)c1
  16.7, 12.1
> Cc1ccc(C(Cn2c(=S)[nH]c3ccccc3c2=O)N2CCOCC2)o1 (stereo not drawn)
  1.0, 0.0
> Cc1ccc(NC(=O)N2CCSC2c2ccc3c(c2)OCO3)cc1C (stereo not drawn)
  -2.1, 8.5
> O=C(NCC1CCCN(S(=O)(=O)c2ccc3c(c2)OCCO3)C1)c1cccs1 (stereo not drawn)
  12.6, 9.9
> CCOc1ccc(SCC(=O)NC2CCS(=O)(=O)C2)cc1 (stereo not drawn)
  6.1, -0.1
> COCc1[nH]n(-c2ccc(Cl)cc2)c(=O)c1C1=C(N2CCN(C)CC2)C(=O)N(C2CCCCC2)C1=O
  -0.2, 7.5
> Cn1ncc(Oc2ccc(F)cc2F)c(Nc2cccc(C(=O)NCc3ccco3)c2)c1=O
  3.9, 8.1
> OC1(c2ccccc2)CCN(Cc2cnc3c(-c4ccccc4)cnn3c2)CC1
  -4.7, 3.9
> O=C(Nc1ccc2c(c1)CCCN2S(=O)(=O)c1ccccc1)c1ccccc1[N+](=O)[O-]
  -4.6, 1.5
> Cn1cc(C(=O)NCCC23CC4CC(CC(C4)C2)C3)cn1
  8.7, 4.0
> Cc1cc(NC(=O)CN(C)C(=O)c2nn(-c3ccc(F)cc3)ccc2=O)no1
  -6.0, -4.5
> O=C(N[C@H]1CCCCNC1=O)c1ccc(N2CCC(NCCc3cccs3)CC2)cc1
  18.2, 18.2
> COc1cccc(C(=O)N2CCN(C(c3ccccc3)c3ccc(Cl)cc3)CC2)c1 (stereo not drawn)
  14.8, 14.0
> COCCNC(=O)Cn1nc2c(c1NC(=O)c1ccco1)CSC2
  -4.0, 3.1
> Cc1ccc(NC(=O)Nc2ccc(Nc3ccc(-n4cccn4)nn3)cc2)cc1C
  -8.7, -11.2
> CCOC(=O)c1[nH]c(C)c(C(=O)N2CCc3c(ncnc3N(C)C)C2)c1C
  3.1, 2.8
> Cc1cc(C)c(C(=O)NCC(C)(C)c2cccs2)c(=O)[nH]1
  10.5, 8.6
> Cc1noc(C)c1CCCNC(=O)c1ccc(N2CCSCC2)nc1
  2.0, 0.2
> NC(=O)c1ccc(-c2ccccc2Cl)o1
  10.4, 1.1
> CC(Cl)C(=O)Nc1cccc(C2SCC(=O)N2c2ccc(N(C)C)cc2)c1 (stereo not drawn)
  -5.6, 2.4
> Cc1cc(S(=O)(=O)NCCCN2CCOCC2)c(Cl)cc1Cl
  -5.8, -6.6
> CC(=O)Nc1ccc(C(=O)OCCn2nc(C)cc2C)cc1
  -3.2, -9.0
> O=C1c2ccccc2C(=O)c2c1ccc(C(=O)Nc1cccc(Br)c1)c2[N+](=O)[O-]
  -3.8, -8.5
> Cc1cccc(OC2CCN(C(=O)CN3CC(C)CC3=O)CC2)c1 (stereo not drawn)
  4.7, -2.6
> COCc1c(C(=O)N(C)C2Cc3ccccc3C2)noc1C
  -8.8, -10.1

Next part.
Every second line gives: NPYLR7 ag, NPYLR7 ag max-min
> CCOC(=NCCN(C)C)NC(=O)c1ccc(C)cc1
  13.0, 18.9
> CCCCNC(=O)C1CCC(Cn2c(=O)c3sccc3n(Cc3ccccc3F)c2=O)CC1 (stereo not drawn)
  -1.0, -7.2
> Cc1cc(CNCCCN2CCCCC2C)c(C)n1-c1ccnn1C(C)C (stereo not drawn)
  -1.5, -4.2
> CCCN(CC(=O)Nc1cc(-c2ccccc2)nn1-c1ccc(C)cc1C)C(=O)Nc1cccc(OC)c1
  -2.8, 3.7
> COc1ccc(C)c2sc(N(CCN(C)C)C(=O)c3ccc(Cl)s3)nc12
  -5.1, -11.0
> COc1ccc(S(=O)(=O)N(CC(=O)Nc2ccccc2Cl)c2ccc(C)cc2)cc1OC
  2.4, 13.0
> COc1cc(NC(=O)c2oc3c(c2C)C(=O)CCC3)c(OC)cc1Cl
  2.4, 1.3
> COC(=O)[C@@H]1C[C@H](NC(=O)c2sc3cccc(F)c3c2Cl)CN1C
  -1.1, 6.3
> CCc1cc(NC(=O)c2ccc(-c3nnc(C)o3)cc2)nc(C)n1
  2.9, 2.5
> CCOc1ccccc1C(=O)Nc1cc(C)nn1-c1nc(C)cc(=O)[nH]1
  4.7, -1.3
> Cc1nn(C)c(C)c1-c1cc(C(=O)N2CCCC(O)(CO)C2)n(C)n1 (stereo not drawn)
  -1.6, -2.1
> O=C(Nc1ccc(Cl)cc1)c1ccc(OC(CCN2CCOCC2)c2cccs2)cc1 (stereo not drawn)
  -0.5, 8.3
> CC1CC(=O)NN1CC(=O)N1c2ccccc2OCC1c1ccccc1 (stereo not drawn)
  11.9, 6.5
> CCCc1nc(CN(CC)C(=O)C2(c3ccc(Cl)cc3)CC2)no1
  -1.1, -2.1
> CC(C)C(=O)Nc1nn(Cc2ccc(COc3ccc4ccccc4c3)cc2)c2ccccc12
  16.0, 20.3
> CC1CCN(CC(=O)Nc2cc(C3CC3)nn2-c2ccccc2)CC1
  1.9, 0.6
> Cc1ccsc1C(=O)N1CCC1(C)C(=O)NS(=O)(=O)c1ccc(C#N)cc1 (stereo not drawn)
  -1.6, -3.9
> COCCn1nc(C(=O)Nc2cc(C)c(Cl)cc2OC)ccc1=O
  2.3, -1.0
> CCCOc1ccc(C(=O)Nc2cccc(-c3nc4ccc(C)cc4o3)c2)cc1
  0.7, 2.1
> Cc1ccc(Nc2nc(NCc3ccc4c(c3)OCO4)nc3[nH]ncc23)cc1
  4.2, 2.0
> OCC1(Cn2ccc(-c3ccc(F)cc3)n2)COC1
  -1.7&-8.9, -4.1&-12.6
> COc1cccc(-c2cc3c(n(Cc4ccccn4)c2=O)CCN(C(=O)c2cc4ccccc4o2)C3)c1
  12.0, 3.0
> Cc1nc(SCC(N)=O)n(CC(C)C)c1C
  -2.4, 10.1
> O=C(Cc1cccc2ccccc12)NCCn1ncccc1=O
  -8.6, -12.0
> CCCSc1nnc(NC(=O)COc2ccc(OC)cc2)s1
  -0.8, -2.9
> C=CCc1ccccc1OC1OC(COC(C)=O)C(OC(C)=O)C(OC(C)=O)C1NC(C)=O (stereo not drawn)
  6.6, 9.0
> Cc1ccc(C2(O)CCN(c3ccc(C(=O)N(C)C)cn3)CC2)nc1
  -7.5, -13.7
